# Source: PubChem
# PrP UTR inh: inhibition of PrP 5' UTR reporter expression | inhibition, % (no concentration beside the values) | 340,000 tested, 0.35% active | cell-based PrP 5' UTR mRNA reporter, plate reader;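 active = every replicate at 50% or more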;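 also: 0 = median of the neutral control wells; tested in H4 reporter cells; numbers are from one replicate; inactives centre near -14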
# Mtb hypoxia rep: Mtb hypoxia fluorescent reporter inhibition; M. tuberculosis hypoxia-regulated fluorescent reporter, fluorescence; fluorescence inhibition, % (no concentration beside the values); 300,000 tested, 0.1% active;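 active = 35 to 45% if threefold the growth effect, above 45% if 1.5-fold the growth effect; inactive = the rest, general growth blockers included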;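 also: wells of about 50 µL received 100 nL stock; 0% = vehicle wells and 100% = reference inhibitor wells; whole bacteria with a GFP reporter of the hypoxia response; strong numbers were not always called active; many hits fall short of the cut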
# RN4220 kill: S. aureus RN4220 growth inhibition; OD600, 16 h; inhibition, % (concentration not given with the values); 330,000 tested, 0.33% active; AID 1259311;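 active = z-score of -3 or lower and OD600 up to 0.18 on both plates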;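 also: plate controls were untreated cells for no effect and reference antibiotic for full effect; stock transfer was 100 nL into about 80 µL; one replicate is shown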
# ugtP null kill: kills S. aureus RN4220 lacking UgtP. S. aureus RN4220 ugtP deletion, OD600 growth, 16 h; some inactives read as strong as hits. growth inhibition, % (test concentration not listed). 330,000 tested, 0.54% active. AID 1259309;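 active = z-score under -3 and OD600 up to 0.15 on both plates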;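 also: plate controls were untreated wells for no effect and antibiotic for full effect; wells of about 80 µL received 100 nL stock; the first replicate is given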
# BJeLR lethal: kills HRASV12-expressing BJeLR cells; BJeLR (HRASV12) viability, CellTiter-Glo ATP luminescence, 48 h; reference of the scale not given here; inhibition, % (test concentration not listed); 300,000 tested, 0.17% active;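 active = replicate mean above 50%; inconclusive = above 50% but judged a plate artefact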;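 also: 50 nL library stock added to about 25 µL; numbers are from one replicate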
# Autofluor counter: flagged as autofluorescent in microsphere protease counterscreen; compound autofluorescence counterscreen, microsphere flow cytometry; hits give high values; fluorescence intensity (no concentration beside the values); 360,000 tested, 3.1% active; AID 624483;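 active = at least 3 SD above the mean of all compounds, about 16000 in these data; inconclusive = too few beads counted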;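 also: 100 nL of 1 mM stock went into each well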
# Mtb hypoxia rep growth: recorded beside Mtb hypoxia rep, whose call it bears; growth inhibition, %; measured here: M. tuberculosis growth (absorbance);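 0% = vehicle and 100% = reference antibiotic; read after six days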
# Starred values were filed as active, the others as inactive; ? = inconclusive; / = no result given.
SMILES,PrP UTR inh,Mtb hypoxia rep,Mtb hypoxia rep growth,RN4220 kill,ugtP null kill,BJeLR lethal,Autofluor counter
CC(NC(=O)Nc1nnc(C(F)(F)F)s1)(C(F)(F)F)C(F)(F)F,-21,/,/,74,83*,12,2520
Cc1[nH]ccc(=O)c1OCC(=O)O,-14,-4,-2,1.6,2,10,5946
CC(=NNC(=O)Cc1c(C)[nH][nH]c1=O)c1ccc(Cl)c(Cl)c1,/,2,2,1.8,0,/,/
O=C(CCCO)N/N=C/c1cc(Br)ccc1O,-14,/,/,/,/,15,2552
Cc1ccc(-n2cc(CNCC3CC(=O)N(C4CC4)C3)c(-c3cccc(C)c3)n2)cc1 (stereo unspecified),-3,12,11,0.4,-1,4,4548
COc1ccccc1OCCn1cc(C#N)c2ccccc21,-9,14,7,-6.4,-6,-15,2594
Cc1c(CN(C)C(=O)CSc2nc(-c3ccco3)cc(C(F)(F)F)n2)cnn1C,-9,18,4,0.0,1,-8,6458
O=C(Cc1ccc(Cl)cc1)OCC(=O)N1CCCCCC1,-31,-1,0,3.7,-5,/,3466
CCCn1c(SCc2nc(N)nc(N3CCCCC3)n2)nc2c1c(=O)n(C)c(=O)n2C,-5,7,7,6.5,7,-10,3441
O=C(N/N=C/c1cccc(C(F)(F)F)c1)C1CCN(c2ncc(C(F)(F)F)cc2Cl)CC1,-21,/,/,/,/,4,8963
CCOc1ccc(S(=O)(=O)Nc2nc3cc(OC)ccc3s2)cc1,-11,2,4,-0.5,-6,1,20407*
COCCCNC(=S)NN=Cc1ccc(O)cc1,/,7,2,3.0,-4,/,/
O=C1NCCN1C(=O)c1cccc(Cl)c1,-13,/,/,2.4,2,11,2948
Cc1ccc(S(=O)(=O)n2cnc3ccccc32)cc1[N+](=O)[O-],-13,/,/,/,/,4,3948
CC(=NN1CCN(c2ccc(Cl)cc2)CC1)c1ccco1,/,0,3,9.5,5,/,/
O=C(CCCOc1ccccc1)Nc1ccc(Cl)cn1,-21,6,16,-1.5,5,-2,4249
CC(=O)NCCn1c(SCC(=O)c2ccc(Cl)cc2)nc2ccccc2c1=O,-23,-1,-1,4.7,3,-4,21199*
COc1ccc(C(C)=NNC(=O)CNC(=O)C=Cc2ccco2)cc1,/,7,4,3.4,-2,/,/
Cc1cc(NC(=O)c2c(F)cccc2Cl)n(-c2nc3ccccc3[nH]2)n1,-34,4,4,7.4,-24,3,2956
COc1ccc(Nc2nccc(-c3ccc([N+](=O)[O-])cc3)n2)cc1,-12,7,-3,0.6,1,-18,3131
Cn1nc(-c2ccccc2)c(CN2CCN(c3ncccn3)CC2)c1Cl,-16,15,13,4.8,4,8,3234
COc1ccc(OC)c(-c2csc(NC(=O)C3CSC4(C)CCC(=O)N34)n2)c1 (stereo unspecified),-15,1,-2,3.0,-2,1,?
CCOc1ccc(C(=S)N2CCCC2)cc1OC,0,6,8,5.1,12,-5,1970
CCCCn1c(N)c(N(CCOC)C(=O)COc2ccc(C(C)=O)cc2)c(=O)[nH]c1=O,-16,-4,5,-1.2,3,-6,4191
COc1ccc(Cc2nnc(NC(=O)C(C)C)s2)cc1,-2,7,-13,2.0,6,1,4055
COc1cc(O)cc(O)c1C(=O)/C=C/c1ccccc1,-29,/,/,0.9,4,-2,5322
CO/N=C/c1ccc(N2CCN(C(=O)c3ccc(Cl)cc3Cl)CC2)c([N+](=O)[O-])c1,-11,/,/,/,/,2,15355
CCNC(=O)NC(=O)C(C)OC(=O)CCCc1nc2ccccc2s1 (stereo unspecified),-5,1,3,7.7,5,9,3772
O=C(CCN1CCOCC1)N1CCCC(Nc2ccc(F)cc2)C1 (stereo unspecified),-4,6,0,6.7,-7,2,6046
CCOc1ccc(CCNC(=O)CS(=O)Cc2nc(-c3ccccc3C)oc2C)cc1OCC (stereo unspecified),-26,-1,1,4.1,4,-1,20576*
Cc1ccc(S(=O)(=O)NNC(=O)Nc2cccc(F)c2)c(C)c1,-6,-7,-4,4.9,-11,10,4476
CC(=O)N(CCCCN1C(=O)c2ccccc2C1=O)c1ccc(C)cc1,-7,/,/,2.5,4,5,/
CCc1cc(=O)oc2cc(C)cc(OCC(=O)C(C)(C)C)c12,-2,-5,1,2.7,7,5,2015
Cc1oc2cc3oc(=O)c(CCC(=O)NCc4ccccn4)c(C)c3cc2c1C,-9,/,/,4.3,-3,3,4948
C=CCOC(=O)C1=C[C@H](C2CCCCC2)C[C@H](OCc2ccc(CO)cc2)O1,-9,/,/,/,/,-1,3105
OCC1(Cc2ccc(Cl)cc2)CCN(Cc2ccc(F)c(F)c2)CC1,-6,7,6,-4.9,4,-13,4579
COc1cccc(C=NNC(=O)CCn2cnc3ccccc32)c1,/,12,4,2.3,0,/,/
O=C(c1ccc(OC2CCN(CCc3ccccc3)CC2)cc1)N1CCCC(O)C1 (stereo unspecified),-8,-8,-8,0.3,1,/,3597
Cc1ccsc1C(=O)N1CCCC(CO)(Cc2ccccc2)C1 (stereo unspecified),-25,-2,12,0.4,-5,1,?
COc1ccc(S(=O)(=O)N(C)CC(=O)NCCC2=CCCCC2)cc1OC,-9,6,5,4.8,4,-1,8206
CN1CCN(S(=O)(=O)c2ccc(-c3noc(C4CCN(S(C)(=O)=O)CC4)n3)cc2)CC1,-29,5,-2,4.5,12,6,11610
C=C(C)CSc1nnc(-c2cccc(S(=O)(=O)N(C)C)c2)n1-c1cc(OC)ccc1OC,-18,/,/,-0.4,0,-4,4926
Cc1cc(N2CCN(C)CC2)nc2ccc(NC(=O)CCC(=O)NCCCOC(C)C)cc12,-10,7,-7,4.0,7,-5,5009
O=C1Nc2ccccc2O/C1=C\c1ccccc1,-30,1,3,4.0,10,-1,3715
O=C(CC1N=C2c3ccccc3N=C(SCc3ccc(Cl)cc3)N2C1=O)NCc1ccco1 (stereo unspecified),-27,8,1,-14,52,/,2938
CC(C)C(C)NC(=O)COC(=O)c1cccc(C(=O)OCC(=O)NC(C)C(C)C)n1 (stereo unspecified),-9,6,2,7.6,19,/,4720
CCN(C(=O)c1cnc(NC(C)C)cc1C(F)(F)F)c1ccc(Cl)cc1,-4,-6,1,2.3,4,-4,6340
COCCCN1C(=O)C(=O)/C(=C(/O)c2ccc(S(=O)(=O)N3CCOCC3)cc2)C1c1cccc(Cl)c1 (stereo unspecified),-16,7,0,7.5,12,11,5744
COc1ccc2c(CC(=O)OCC(=O)Nc3cccc(S(N)(=O)=O)c3)coc2c1,-7,7,2,6.8,-1,-6,3979
CC(C)NC(=O)CSc1nc(-c2cccs2)cc(-c2ccccc2)c1C#N,-7,2,4,-2.1,-7,-1,9444
Cc1cc(CNCc2c(C(=O)N(C)Cc3ccccc3)nc3ccccn23)nn1C,-11,17,2,4.7,-5,-6,2159
CCOc1ccc(N(CC(=O)Nc2cccc(F)c2)S(=O)(=O)c2c(C)noc2C)cc1,-23,/,/,5.1,-8,10,4966
CN1CCN(c2cc(C(F)(F)F)nc3ccc(F)cc23)CC1,-13,8,4,1.0,4,-1,3924
O=C(Nc1ccc2c(c1)CCC2)c1ccc(Br)s1,-77,-7,9,-13,-2,7,4301
Cc1ccccc1C(=O)N1CCC(C(=O)Nc2ccccn2)CC1,-12,-11,2,-3.1,-2,-2,?
O=c1oc2ccc3ccccc3c2cc1-c1nnc(-c2ccccc2)o1,6,/,/,5.8,-19,6,3584
COc1ccc(NC(=O)CCS(=O)(=O)c2cccc3nonc23)cc1Cl,-7,14,13,2.2,3,-1,3802
COCCn1c(=NC(=O)c2ccc3c(c2)OCO3)c(C#N)cc2c(=O)n3cccc(C)c3nc21,/,/,/,-9.5,10,-1,/
COc1ccc(NS(=O)(=O)c2cccc(C(=O)NNC(=O)c3ccc(=O)[nH]c3)c2)cc1,-21,6,-2,1.2,4,/,6486
CC1CC(C)CN(S(=O)(=O)CCNC(=O)c2ccccc2)C1 (stereo unspecified),-18,/,/,/,/,3,4631

# (continued)
SMILES,PrP UTR inh,Mtb hypoxia rep,Mtb hypoxia rep growth,RN4220 kill,ugtP null kill,BJeLR lethal,Autofluor counter
N#C/C(=C1\CCCN1)c1nc2ccccc2c(=O)[nH]1,-15,/,/,/,/,-1,2929
CC(Oc1ccc(Cl)cc1Cl)C(=O)Nc1ccc2oc(-c3ccncc3)nc2c1 (stereo unspecified),-2,9,-1,31,3,9,7005
Cc1c(CC(=O)N2C[C@H]3C[C@@H](C2)c2cccc(=O)n2C3)c(=O)oc2c(C)c(O)ccc12,-7,/,/,-0.7,3,9,5033
COc1ccc(N2CC(C(=O)Nc3cccc(OC(C)C)c3)CC2=O)cc1 (stereo unspecified),-11,8,11,1.2,8,-3,3523
Cc1ccc(C(=O)OCC(=O)c2ccc(CC(=O)N3CCOCC3)s2)cc1C,-20,7,-6,3.0,-7,/,7255
Cc1ccc(C2C(C#N)=C(N)N(N(C)C)C3=C2C(=O)CCC3)cc1 (stereo unspecified),-13,13,0,4.1,8,-13,2186
Cc1[nH]c2ccccc2c1C(=O)C(=O)Nc1ccc2c(c1)OCO2,-45,-6,-7,8.3,10,-3,/
COc1cc(C(CCN2CCCC(C)C2)c2c(OC)cc(OC)c3c2OC(=O)CC3c2ccc(N(C)C)cc2)cc(OC)c1OC (stereo unspecified),-7,/,/,/,/,-3,3132
N#C/C(=C/c1ccc(CNS(=O)(=O)c2ccccc2)o1)C(=O)NCc1ccccc1,-36,1,0,2.0,-4,-6,2754
CCC1(C(N)=O)CC2C=CC1C2 (stereo unspecified),-13,16,8,3.4,1,/,3870
C=C(C)COc1ccc(-c2n[nH]c(C)c2-c2ccc(OC)c(OC)c2)c(O)c1,18,-7,3,-4.4,10,14,4416
Cc1cc(Br)ccc1NC(=O)CN(C)C(=O)c1cc([N+](=O)[O-])ccc1N1CCOCC1,-23,2,-4,2.8,9,4,4534
O=C(c1sc2cc(F)ccc2c1Cl)N1CCN(c2cccc(Cl)c2)CC1,-2,8,2,-2.1,-1,-6,8617
CCOC(=O)c1cccc(NC(=O)C2CCCN(c3nnc(N4CCCC4=O)s3)C2)c1 (stereo unspecified),-7,-4,8,-4.9,-6,-9,4417
COc1ccc(OC)c(S(=O)(=O)NCC(c2cccs2)N2CCc3ccccc3C2)c1 (stereo unspecified),-18,5,0,1.3,16,-5,5879
COc1ccccc1C(c1c(N)n(C)c(=O)n(C)c1=O)C(C)[N+](=O)[O-] (stereo unspecified),/,12,5,4.3,7,-4,6209
COc1ccc(CN2CCN(Cc3ccco3)CC2)cc1OC,-38,0,9,5.0,7,-8,3458
O=C(CCCN1C(=O)c2ccccc2C1=O)NCCCn1ccnc1,-58,5,1,-0.4,7,7,4697
O=C(NCC(c1ccco1)N1CCc2ccccc2C1)C(=O)Nc1ccccc1 (stereo unspecified),-14,5,0,-6.7,-1,10,?
O=C(NCCc1nc2ccccc2[nH]1)/C(=C/c1ccco1)NC(=O)c1ccc(Br)o1,-31,0,3,2.3,3,-6,2722
O=C(CCC1CCCN(Cc2cccc3c2OCO3)C1)NCc1ccc(F)c(F)c1 (stereo unspecified),5,-4,4,-2.8,-3,3,2893
O=C(Nc1nnc(C(F)(F)F)s1)c1cccnc1,-54,7,8,5.1,2,2,11499
O=C(CCc1nc2ccccc2s1)OCC(=O)c1ccccc1,-35,7,5,1.6,-3,7,2312
Cc1ccccc1C(=O)NCC(=O)N1CCN(c2ccccn2)CC1,-40,10,6,4.0,9,/,3314
COc1cc(C(=O)NCC(c2ccccc2)N(C)C)ccc1OCc1c(C)noc1C (stereo unspecified),-14,-2,-6,-2.7,1,/,2979

# Outcome played no part in choosing rows (roughly 4.1% active in at least one column).
